# Screens from PubChem BioAssay.
# NPR1 antag = Natriuretic polypeptide receptor (hNpr1) antagonism - Primary qHTS; Atrial natriuretic peptide receptor 1 (Homo sapiens), P16066; HEK293 hNpr1 GloSensor cGMP, ANP-stimulated luminescence; Potency, µM (series often up to 46.3 µM), for the others: top-dose activity change, negative = inhibition, hits mostly inhibitors; actives 1.6% (n = 76,000); AID 1347048, 2019; active = well fitted inhibition curve with a large enough effect; inconclusive = small, poorly fitted or top-dose-only effect; inactive = no such curve, though single readings can be large or run the other way;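 also: nearly all actives have a fitted effect of over 60% in size; nearly all hits also lower the signal before the agonist is added; a reference antagonist and vehicle were the controls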
# Target sequence (P16066 whole entry, looked up): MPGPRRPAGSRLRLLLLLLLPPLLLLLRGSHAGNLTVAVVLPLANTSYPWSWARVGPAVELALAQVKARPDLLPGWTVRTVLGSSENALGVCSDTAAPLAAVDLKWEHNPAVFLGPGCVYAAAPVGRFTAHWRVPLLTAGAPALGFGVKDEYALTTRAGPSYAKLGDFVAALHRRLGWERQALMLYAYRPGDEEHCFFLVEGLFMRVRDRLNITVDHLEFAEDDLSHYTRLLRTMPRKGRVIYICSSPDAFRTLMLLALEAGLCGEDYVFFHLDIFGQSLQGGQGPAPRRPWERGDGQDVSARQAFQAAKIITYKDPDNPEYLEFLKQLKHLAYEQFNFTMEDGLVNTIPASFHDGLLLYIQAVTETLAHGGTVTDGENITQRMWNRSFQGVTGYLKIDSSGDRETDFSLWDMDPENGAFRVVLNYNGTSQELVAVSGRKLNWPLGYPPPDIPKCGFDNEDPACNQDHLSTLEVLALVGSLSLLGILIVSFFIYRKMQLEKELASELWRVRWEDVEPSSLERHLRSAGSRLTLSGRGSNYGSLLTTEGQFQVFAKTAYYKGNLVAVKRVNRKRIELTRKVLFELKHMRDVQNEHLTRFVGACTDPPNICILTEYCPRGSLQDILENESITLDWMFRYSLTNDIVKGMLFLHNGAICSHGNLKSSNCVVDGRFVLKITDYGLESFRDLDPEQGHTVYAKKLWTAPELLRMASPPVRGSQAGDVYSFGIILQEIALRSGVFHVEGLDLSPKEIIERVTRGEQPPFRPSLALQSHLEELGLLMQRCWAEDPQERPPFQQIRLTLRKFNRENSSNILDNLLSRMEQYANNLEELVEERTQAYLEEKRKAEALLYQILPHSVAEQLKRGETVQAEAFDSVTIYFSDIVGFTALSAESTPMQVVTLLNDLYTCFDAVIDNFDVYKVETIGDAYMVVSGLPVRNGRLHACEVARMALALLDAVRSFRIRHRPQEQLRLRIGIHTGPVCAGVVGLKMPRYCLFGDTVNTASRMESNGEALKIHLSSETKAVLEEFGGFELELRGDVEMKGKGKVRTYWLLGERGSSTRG
#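 Compound pre-incubated 30 min at room temperature on GloSensor-loaded HEK293 cells stably carrying hNpr1 and the pGS-40F cGMP biosensor. Stimulation uses hNppA at 0.1 nM final; luminescence is taken at baseline and 20 min post-agonist.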
# * = called active by the depositor; ? = inconclusive; [ ] = another dose, or the depositor's remark. % is scaled to controls: 0 for no effect and ±100 for the full control effect; potency is read from the fitted curve at half-maximal effect.
NPR1 antag | Molecule
3.3% | Cc1noc(C)c1Cc1c(C(=O)N2CCC(C3CCNC3)CC2)noc1C (configuration not stated)
1.1% | O=c1[nH]c2cc3c(cc2cc1CN1CC[C@H](O)C1)OCO3
8.1% | Cc1nnc([C@@H]2CC(F)(F)CN2C(=O)COc2ccc(F)cc2)o1
1.8% | CN1C[C@@H]2CCCN3CCC[C@@H]([C@H]23)[C@H]1CCCC(=O)NCC1CC1
-1.7% | CNC(=O)[C@@H]1CN(C(=O)c2sccc2C)C[C@H]1c1n[nH]c(C)n1
2.3% | CC(C)C(=O)N1CCC(c2nc(-c3cccnn3)no2)CC1
1.7% | Cc1ccc(F)c(S(=O)(=O)N2CCC3(CC2)C(C(=O)O)CC(=O)N3C)c1 (configuration not stated)
1.5% | COCC(=O)N(C1CCOCC1)C1CCN(C(=O)c2nn(C)c3ccccc23)CC1
-6.8% | Cc1ccc(OC2(C(=O)O)CCN(C(=O)c3nc(C)oc3C)CC2)cn1
7.8% | O=C1CC2(CCN([S+](=O)([O-])c3cccs3)CC2)Oc2ccccc2N1

# Following part
NPR1 antag | Molecule
6.4% | O=C1CC(c2ccccc2)N(C(=O)CNC(=O)C2(c3ccccc3)CC2)CCCCCCN1 (configuration not stated)
-9.8% | Cc1cccc(N2Cc3c(ncnc3N3CCOCC3)CN(C)C2=O)c1
-0.8%[70.6 µM] | Cc1cccc(-c2noc([C@@H]3Cc4nc[nH]c4CN3C(=O)C3CCCCC3)n2)c1
-2.5%[70.6 µM] | O=c1c2nc(-c3ccsc3)ccc2ncn1-c1ccccc1
3.5% | C[S+](=O)([O-])N1CC2(Cc3ccccc31)CN(C(=O)c1ccccc1F)C2
-23.2%[70.6 µM] | CC1=C[C@@H](CNC(=O)Cn2cnnn2)[C@H](C(C)C)C[C@H]1Cc1nc2ccc(C)cc2[nH]1
-7.2%[70.6 µM] | COC[C@H]1C[C@@H](NC(=O)Nc2cccc(-c3noc(C)n3)c2)[C@H](O)[C@@H]1O
-29.8% | COc1cccc(-c2cc3c(=O)n(CC(O)c4ccccc4)ccn3n2)c1 (configuration not stated)
3.98µM* | N#Cc1ccccc1CN1CCCC(C(=O)NCc2ccccc2)CCNC(=O)CC1 (configuration not stated)
6.2% | COc1ccc(C(=O)N2CCC(c3n[nH]c(=O)n3Cc3ccc(C)cc3)CC2)cc1F

# A different layout for some results above.
SMILES	NPR1 antag
COc1cccc(-c2cc3c(=O)n(CC(O)c4ccccc4)ccn3n2)c1 (configuration not stated)	-29.8%
N#Cc1ccccc1CN1CCCC(C(=O)NCc2ccccc2)CCNC(=O)CC1 (configuration not stated)	3.98µM*
COc1ccc(C(=O)N2CCC(c3n[nH]c(=O)n3Cc3ccc(C)cc3)CC2)cc1F	6.2%

# Further compounds follow.
NPR1 antag | Molecule
-2.0% | COc1ccc(OCc2nc(C)c(CCO)c(=O)n2CC(=O)NCc2ccc(F)cc2)cc1
-11.5% | CN(CC1CCOCC1)C(=O)Nc1ccc(Cl)cc1
-11.3% | COc1ccc(C[C@H](NC(=O)C2=C[C@@H](Oc3cc(F)ccc3Br)[C@H](O)[C@H](O)C2)C(N)=O)cc1
-3.1% | CCOC(=O)C1=CN(CC(=O)Nc2cccc(C)c2C)S(=O)(=O)N=C1C
6.6% | O=C(c1ccco1)N1CCN(C2CCC3(CCNCC3)CC2)CC1
4.7%[70.6 µM] | COCc1cc(C[C@@H]2CC[C@H](O)[C@@H](CNS(=O)(=O)c3ccccc3)O2)no1
5.3% | CN1CCC(Cc2nc(CC3C=CS(=O)(=O)C3)n(CCO)n2)CC1 (configuration not stated)
3.3%[70.6 µM] | O=C(NC[C@H]1OC[C@@H](NC2CCC2)[C@@H]1O)c1cccs1
-8.5% | CN1c2cc(C(=O)Nc3ccc(C(F)(F)F)cc3)ccc2C(=O)N2CCCCC21 (configuration not stated)
-25.3%[70.6 µM] | Cc1noc2c(N3CCNC(=O)C3)cc(-c3cccc(C(F)(F)F)c3)nc12

# (continued)
NPR1 antag | Molecule
1.4% | N#Cc1ccccc1CN1CCc2nc(N3CCc4ccccc4C3)[nH]c(=O)c2CC1
12.0%[70.6 µM] | O=C(NC[C@H]1OC[C@@H](NCc2ccccc2F)[C@@H]1O)Nc1ccccc1
5.1% | Cc1ncoc1C(=O)N1CCC(C(=O)N2CCCCCCNC(=O)CC2)CC1
1.7% | CCOc1ccc(CC(=O)N2CCC3(CC2)CN(C(C)=O)CC3COC)cc1 (configuration not stated)
9.0% | CC(=O)N1CCC(C2CCN(C(=O)NCCc3ccccc3)C2)CC1 (configuration not stated)
0.4% | O=C(O)C1(Oc2ccc3ncccc3c2)CCN(Cc2ccncc2)CC1
-7.4%[70.6 µM] | CC1(COc2ccc3[nH]ccc3c2)COc2ccc(C(=O)N3CC(O)C3)cc2N1 (configuration not stated)
10.7%[70.6 µM] | C[C@@H](NCC1CCCC1)c1onc(-c2ccc(F)cc2)c1C(=O)O
3.2% | O=C(Nc1ccc2c(c1)C(=O)N1CCC[C@H]1C(=O)N2)c1cc(-c2cccnc2)n[nH]1
6.4% | CS(=O)(=O)N1C[C@H]2CCN(Cc3cccc(F)c3F)C[C@H]21

# (listing goes on)
NPR1 antag | Molecule
4.0% | COC(=O)CCC(=O)N1CCCC(c2nc(SCCN3CCOCC3)ncc2C)C1 (configuration not stated)
-24.8%[70.6 µM] | Cc1nn2c(c1-c1ccccc1Oc1ccccc1)N(C(=O)c1ccccc1)CCC2
0.0% | COc1ccc(Cl)cc1NC(=O)CN1C(=O)NC2(CCC(C)CC2)C1=O (configuration not stated)
4.3% | COC(=O)[C@H](NC(=O)[C@@H]1C[C@H](NC(=O)Nc2ccc(OC)cc2)CN1C(=O)CSC)C(C)C
-3.7% | CCCC1c2nccn2CCCN1C(=O)c1ccoc1C (configuration not stated)
0.4% | O=C1NCCC[C@@H]1NC(=O)[C@H]1CN(C(=O)C2CCNCC2)CCN1C(=O)c1cccs1
-3.0% | O=C(Cc1ccccn1)N1CCC2(CC1)CC(=O)N(c1ccccc1)c1ccccc1O2
2.0% | O=C(N[C@H]1C[C@@H]2OCC[C@H]12)c1cccc(-n2cnnc2)n1
-2.5% | N#Cc1cccc(C(=O)Nc2ccc3c(N4CCOCC4)ncnc3c2)c1
-3.4%[70.6 µM] | CC(C)CN1C(=O)COC[C@@H]1[C@H](O)c1ccc(NC(=O)c2ccco2)cc1

# Carrying on:
NPR1 antag | Molecule
2.5% | O=S(=O)(NCCc1noc(-c2ccncc2)n1)c1ccc(F)cc1
-0.8% | COc1nccnc1-c1cc(NCCN(C)C)nc2[nH]ccc12
-0.2% | COCCNC(=O)C(NC(=O)c1ccccc1C)C1CCN(C(=O)c2ccccc2F)CC1 (configuration not stated)
-8.9% | Cn1cccc1CN1CC[C@H]2C(=O)NCCCCCCN(Cc3ccncc3)[C@@H]2C1
2.1% | CCCOC(=O)C1=CN(Cc2ccccc2)S(=O)(=O)N=C1C
-9.0% | CCn1cc(S(=O)(=O)N2CCC(CCOc3ccccc3OC)C2)cn1 (configuration not stated)
-8.5% | CC(=O)N1C[C@@H](C(=O)NCCCc2c(C)noc2C)[C@H](c2nc(C)no2)C1
15.8µM* | O=C(c1ccccc1)N1CCC2(CC1)N=C(c1ccc(Br)cc1)NO2
? | COc1ccc([S+](=O)([O-])N2CCC3(CC2)OCCN(c2ccc(F)cc2)C3=O)cc1
-5.9% | CCCn1c(C)cnc1CC1CCN(S(=O)(=O)c2ccc3c(c2)CCC3)C1 (configuration not stated)

# Other results follow:
NPR1 antag | Molecule
-11.6%[70.6 µM] | Cc1noc(C)c1-c1cc2cc(CO)oc2c(NCC2CCOCC2)n1
0.7% | Cc1cc(=O)c(C(=O)N2CCC3(CC2)CC(C(=O)O)N(C)C3)c(C)[nH]1 (configuration not stated)
-26.7% | N#Cc1cccc(CN2Cc3[nH]cnc3C[C@H]2c2nc(-c3ccc(OC(F)(F)F)cc3)no2)c1
-3.1%[70.6 µM] | Cc1noc2c(N3CC(O)C3)cc(-c3ccc(F)cc3)nc12
-2.6% | O=C(Cc1ccccc1)NCC(=O)N1CCCCCNC(=O)CC1c1ccccc1 (configuration not stated)
5.3% | CC(C)CCN(C1CCOCC1)C1CCN(Cc2cccnc2)CC1
5.4% | CN1c2cc(C(=O)Nc3ccc(F)cc3)ccc2C(=O)N2CCCCC21 (configuration not stated)
-19.3% | N#Cc1ccc(CN2CCn3nnc(-c4nc(-c5ccsc5)no4)c3C2=O)cc1
2.0% | CN(C)C[C@@H]1CN(Cc2ccccc2)C[C@H]1N
-3.1% | COCCN1C(=O)CCc2cc(NC(=O)c3ccc(F)cc3Cl)ccc21

# 3 compounds picked at random from those above:
NPR1 antag | Molecule
-3.1%[70.6 µM] | Cc1noc2c(N3CC(O)C3)cc(-c3ccc(F)cc3)nc12
-26.7% | N#Cc1cccc(CN2Cc3[nH]cnc3C[C@H]2c2nc(-c3ccc(OC(F)(F)F)cc3)no2)c1
-3.1% | COCCN1C(=O)CCc2cc(NC(=O)c3ccc(F)cc3Cl)ccc21

# (next part)
NPR1 antag | Molecule
-0.8% | C=CCOC(=O)C1=C(C)N(Cc2ccc(Br)cc2)C(=O)CC1c1ccccc1Cl (configuration not stated)
1.4% | COc1ccc(NC(=O)N2c3ccccc3CC2c2nc(C3CC3)no2)c(OC)c1 (configuration not stated)
-19.0% | CC(=O)c1cccc(C(=O)N2CCC3(CC2)N=C(c2ccc(C)cc2)NO3)c1
-1.8% | CCCCNC(=O)N1CC(C(=O)NC(C)c2ccccc2)CC(c2ccc(OC)c(OC)c2)C1 (configuration not stated)
1.6% | Cc1ccc(NC(=O)Cn2c(=O)c(-c3noc(C)n3)c3n(c2=O)CCCCC3)cc1
-9.6% | CSc1ccc(NC(=O)c2ccc3c(c2)N(C)C2CCCN2C3=O)cc1 (configuration not stated)
3.2% | CN1C(=O)C2(CCN(C(=O)NC3CCCCC3)CC2)c2ccccc21
? | N#Cc1cccc(CN2CCc3nc(C(=O)NCCOc4ccccc4)oc3CC2)c1
-6.6% | CCN1C(=O)CCC2(C(=O)NCC3CC3)CCCC=C12 (configuration not stated)
7.7% | C#CCN(C)C(=O)CC1COc2ccc(C(=O)NCCOC)cc2N1C (configuration not stated)

# Additional records
NPR1 antag | Molecule
-1.9% | CC1CN(c2ccccc2C#N)C(=O)CN1C(=O)c1ccc2c(c1)OCCO2 (configuration not stated)
2.1% | CC(C)c1noc(-c2cn(C3CCN(C(=O)CCc4ccccc4)C3)nn2)n1 (configuration not stated)
0.9%[70.6 µM] | COc1ccc(-c2nnc([C@H]3CCN(c4ncccn4)C3)o2)cc1
-0.9% | CC[C@H]1CN(C(=O)c2ccc(F)cc2)CC[C@H]1CC(=O)N(CC)C(=O)NCCCN(C)C
-13.5%[70.6 µM] | O=C(NC1CCC1)c1ccc2c(c1)C1(CCN(CC3CC3)C1)CN2Cc1ccccc1 (configuration not stated)
-9.4% | O=C(C1c2ccccc2C(=O)N(Cc2ccccc2)C12CCCC2)N1CCCC1 (configuration not stated)
6.4% | COCCC(=O)N1CCC2(CC1)CC(Cc1nc(CCOC)no1)CCO2 (configuration not stated)
0.0% | Cc1ccc(OCc2nc(C3CCNCC3)no2)cc1
-22.1% | Cc1ccc(-c2ncc(NC(=O)c3ccccc3C(F)(F)F)cn2)cc1
4.6% | COc1ccc(OC)c(CNC(=O)CC2C(=O)NCCN2CC=C(C)C)c1 (configuration not stated)

# Continuation.
NPR1 antag | Molecule
6.2% | COC(=O)[C@@H]1Cc2c([nH]c3ccccc23)[C@@H]2C[C@@H](NCCCn3ccnc3)C[C@@H](c3ccc(F)c(F)c3)N12
1.9% | CNC(=O)c1cc[nH]c1C1CCCN(C(=O)CCc2c(C)n[nH]c2C)C1 (configuration not stated)
? | Cc1nc2c(c(-c3ccc(O)cc3)n1)CN(Cc1ccc(C(F)(F)F)cc1)CCC2
2.6%[70.6 µM] | CCN(CC)Cc1nc(C2(O)CCN(C3COC3)CC2)cs1
? | Cc1ccc(-c2ncc3c(n2)OCCN(Cc2ccc(F)cc2F)C3=O)cc1
2.3% | Cc1ccc(OCCN(C)Cc2cc(C#CCO)cs2)c(C)c1
-3.2% | COCCN1C(=O)c2ccccc2C(C(=O)NCCc2ccccc2)C12CCCC2 (configuration not stated)
3.4%[70.6 µM] | COCc1ccc2c(c1)c(OC(C)(C)C(=O)NCCc1cccnc1)nn2CCC(C)C
-1.6% | COc1ccc2[nH]cc(CCNC(=O)C3CCCN(Cc4ccncc4)CCC(=O)NCC3)c2c1 (configuration not stated)
1.3% | COc1ccccc1CNC(=O)CN1CCC(CO)CC1

# The list goes on:
NPR1 antag | Molecule
0.3% | O=C(COc1ccc(F)cc1)N1CCC(c2noc(C3CC3)n2)C1 (configuration not stated)
-2.4% | O=C(NCc1nnc2c(-c3nc(C4CC4)no3)cccn12)C1CCC1
4.0% | Cc1nc(C)c(C(=O)N2CCn3c(nnc3[C@@H]3C[C@@H](O)CN3Cc3ccccc3)C2)s1
6.4%[70.6 µM] | CN1C(=O)COC[C@@H]1[C@H](O)c1ccc(NS(=O)(=O)c2ccc(F)cc2)cc1
? | CCNC(=O)N1CCOc2ccc(CCC(=O)Nc3ccc(F)cc3F)cc2C1
-6.1% | C=CCn1cc(-c2c(-c3ccccc3)ncn2Cc2cncn2CCOC)cn1
7.6% | CO[C@H]1[C@H](NC(=O)c2cc(C)oc2C)c2ccccc2C12CCNCC2
2.0% | COc1cccc(-c2cc3c(=O)n(CC(O)c4cccc(C#N)c4)ccn3n2)c1 (configuration not stated)
2.7% | Cc1ccccc1Cc1noc(-c2nc(-c3ccccc3F)no2)n1
3.7% | O=C(Nc1ccccc1)N1CCn2c(nn(-c3ccc(F)cc3)c2=O)C1
-1.0% | CC(C)COc1cc(=O)n2c(c1C(=O)NCc1ccc(C(F)(F)F)cc1)CCCCC2

# An excerpt; the hit share may differ from the screen's.
